CapD inh – inhibitors of Bacillus anthracis CapD enzyme. hit rate 0.23% among 140,000. z-score (test concentration not listed). purified CapD enzyme, fluorescence intensity read-out; active compounds read low; some hits fall short of the stated cut;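 active = z-score under -4 in either of two replicates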;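 also: stock transfer was 100 nL into about 40 µL; score is relative to mean and spread of the plate; one replicate is shown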
AID504770 – growth inhibitors of E. coli YBA685 in a screen for V. cholerae RctB (chromosome II replication) inhibitors | E. coli YBA685 rctB-dependent plasmid, OD600 growth, 3 h; active compounds read low | z-score (no concentration beside the values) | hit rate 0.27% among 130,000 | AID 504770;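 active = z-score under -2 on both plates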;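 also: wells of about 30 µL received 100 nL stock; score is relative to mean and SD of the test wells; the first replicate is given; strong numbers were not always called active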
* = called active by the depositor; / = no result given. Only part of the results is shown; count on the stated rates, not on these rows.

compound	CapD inh	AID504770
O=C(O)CC(C(=O)O)C(O)c1ccccc1 (stereo not given)	0.42	-0.7
COc1cc(OC)cc(C(=O)Nc2ccc(OCC(=O)O)cc2)c1	0.14	-0.45
CCCCCCCCCCCCCCC(=O)NC1C(OC(C)=O)OC(COC(C)=O)C(OC(C)=O)C1OC(C)=O (stereo not given)	-0.22	/
COC(=O)C1=C(C)N(CC2CCCO2)C(=O)/C1=C/c1ccc(CNS(=O)(=O)c2ccc(Cl)cc2)o1 (stereo not given)	-1.4	0.2
CC(C)NC(=O)c1ccc(CS(=O)Cc2ccc(Cl)cc2)o1 (stereo not given)	0.085	-0.4
OC(CNCc1ccco1)COc1ccc(OCC(O)CNCc2ccco2)cc1 (stereo not given)	/	-0.1
Cc1cc(Oc2ccccc2)nc(OCC#N)n1	-0.07	-1.1
O=C(Cn1cncn1)Nc1c(Cl)cc(Cl)cc1Cl	/	2
O=C1c2ccccc2NC(c2ccccn2)N1c1ccc(Cl)cc1 (stereo not given)	/	0.05
CC1CN=C(NCc2ccncc2)S1 (stereo not given)	-0.1	-0.3
Cc1ccc(C(=O)COC(=O)c2ccc(-n3cnnn3)cc2)c(C)c1 (tested in a mixture with another compound)	0.66	1.1
CCOC(=O)Nc1ccc2c(c1)N(C(=O)N1CCN(C)CC1)c1ccccc1CC2	-0.64	/
COc1ccccc1NC(=O)CCC1COc2ccccc2O1 (stereo not given)	-0.36	-0.9
CC(C)NC(=O)CC1Oc2ccc(Cl)cc2NC1=O (stereo not given)	-0.77	-0.8
Cc1oc(/N=C/c2ccccc2)c(C#N)c1C	-0.66	-0.3
O=C1NCCCCC1NS(=O)(=O)c1ccc(Cl)cc1 (stereo not given)	0.29	0.45
COc1ccc(NC(=O)C2=C(C)NC(SCC(=O)Nc3ccccc3)=C(C#N)C2c2ccccc2)cc1 (stereo not given)	-0.29	/
O=C(NCCCn1ccnc1)c1cc(C(=O)C2CCCCC2)c[nH]1	0.05	1.2
O=C1CSCC(=O)N1c1cc(C(F)(F)F)cc(C(F)(F)F)c1	0.56	-0.65
O=C(Nc1ccccc1)Sc1ccccc1Cl	-0.74	-0.9
CCC(=O)N1CCc2cc(S(=O)(=O)CCC(=O)Nc3cccc(C)c3)ccc21	-0.54	-0.4
COc1ccc(CN(C)C(=O)COc2ccccc2)cc1	-0.77	3.1
Clc1ccc(C2N(Cc3ccccc3)CCN2Cc2ccccc2)cc1	0.01	/
COCCn1c(C23CC4CC(CC(C4)C2)C3)n[nH]c1=S	-0.25	2.1
CSC(=NCc1ccco1)Nc1cc(-c2ccccc2)[nH]n1	-0.39	0.4
O=C(COc1ncnc2cc(Cl)ccc12)c1ccc2c(c1)OCCCO2	1.2	0.05
COc1ccc(N(Cc2ccccc2)Cc2ccccc2)cc1	0.29	/
Cc1cccc(-n2c(C)cc(C(=S)N3CCOCC3)c2C)c1C	1.6	-1.3
O=C(CN(c1cccc(C(F)(F)F)c1)S(=O)(=O)c1ccccc1)Nc1ccc(Br)cc1	-0.17	/
O=C(OC1CCOC1=O)c1ccc2c(c1)C(=O)N(Cc1ccccc1)C2=O (stereo not given)	/	-0.15
O=C(Nc1cccc2ccccc12)NC1CC1	6.8	-0.05
CN(C)C(=O)Nc1cccc(OC(=O)N(C)C)c1	-0.2	1
O=C(c1ccc(Cn2c(=O)[nH]c3ccsc3c2=O)cc1)N1CCCCC1	-0.31	-0.1
CCN(CC)c1ccc(/C=C2\C(=O)N(c3nc(-c4ccccc4O)cs3)N=C2C)cc1	-0.35	/
COC(=O)c1ccc(C(=O)OC)c(NC(=O)c2cc3nc(-c4ccc(OC)cc4)cc(C(F)(F)F)n3n2)c1	1	/
O=C(O)c1ccccc1S(=O)(=O)Nc1cccnc1	-0.11	1.4
O=C(Oc1ccc(-c2nnco2)cc1)c1cc2c(s1)CCCC2	/	0.9
Cc1ccnc2nc(C(=O)N3C(=NCc4ccccc4)SCC3(C)C)nn12	/	-0.15
O=C(Nc1ccc(F)c(F)c1)c1ccc(N2CC3CC(C2)c2cccc(=O)n2C3)c(NC(=O)c2c(F)cccc2F)c1 (stereo not given)	0.7	/
CCOC(=O)C1CCCN(c2ncnc3[nH]ncc23)C1 (stereo not given)	/	0.45
O=C(COc1ccc(/C=c2/sc3nc4ccccc4n3c2=O)cc1)N1CCCC1	0.055	-0.25
N/C(Cc1ccc([N+](=O)[O-])cc1)=N\O	-0.035	/
CCN1C(=O)/C(=C\c2cccc3c2-c2ccccc2C3=O)OC1=S	-0.09	-0.8
O=C(NC1CCCCNC1=O)c1ccco1 (stereo not given)	0.49	0.35
CCOC(=O)C1=CN(Cc2ccc(OC)c(OC)c2)C=C(C(=O)OCC)C1c1cc(OCC)c(O)c([N+](=O)[O-])c1	-1.4	/
Cc1noc(C)c1S(=O)(=O)N(C(C)C)C(C)C	0.69	-0.65
O=C(Nc1ccccc1-c1nc2ccccc2[nH]1)c1cc([N+](=O)[O-])c(N2CCOCC2)c([N+](=O)[O-])c1	2.1	/
CC1(C)Cc2nc(N)c(C#N)cc2CO1	/	-0.45
CCNC(=O)/C=C1\NC(C)(C)Cc2c1ccc1ccccc21	1.1	/
Cc1noc(C)c1C(=O)Nc1ccc(S(=O)(=O)N2CCCc3ccccc32)cc1	0.065	-0.25

3 entries from above, sorted by count of non-hydrogen atoms, smallest number first:
compound	CapD inh	AID504770
N/C(Cc1ccc([N+](=O)[O-])cc1)=N\O	-0.035	/
O=C(COc1ccc(/C=c2/sc3nc4ccccc4n3c2=O)cc1)N1CCCC1	0.055	-0.25
O=C(Nc1ccccc1-c1nc2ccccc2[nH]1)c1cc([N+](=O)[O-])c(N2CCOCC2)c([N+](=O)[O-])c1	2.1	/

The main list resumes with the 4 entries that preceded the break.
compound	CapD inh	AID504770
O=C(Nc1ccccc1-c1nc2ccccc2[nH]1)c1cc([N+](=O)[O-])c(N2CCOCC2)c([N+](=O)[O-])c1	2.1	/
CC1(C)Cc2nc(N)c(C#N)cc2CO1	/	-0.45
CCNC(=O)/C=C1\NC(C)(C)Cc2c1ccc1ccccc21	1.1	/
Cc1noc(C)c1C(=O)Nc1ccc(S(=O)(=O)N2CCCc3ccccc32)cc1	0.065	-0.25
CC(NC(=O)c1ccncc1)C(c1cccs1)N1CCN(Cc2ccccc2)CC1 (stereo not given)	0.29	-0.35
O=C(NCc1ccccc1)c1cccc(S(=O)(=O)N2CCCC2)c1	/	0
Cc1cc(C)cc(NC(=S)N(CCCN2CCOCC2)C(C)c2cc3ccccc3o2)c1 (stereo not given)	-0.17	-0.45
O=S1(=O)CCN(Cc2ccc(NS(=O)(=O)c3ccc(Cl)cc3)cc2)CC1	-1.2	0.25
CCN1C(=O)C(CC(=O)Nc2ccc(F)cc2)N(CCc2ccccc2)C1=S (stereo not given)	-0.08	-0.1
CCn1c(=O)[nH]c(=O)c2c(C(F)(F)F)cc(-c3ccc(C)cc3)nc21	/	0.5
Cn1c(=NC(=O)c2ccc(F)cc2)sc2ccccc21	-0.1	-0.3
CCN1C(=O)c2cccc3c(S(=O)(=O)NCc4ccco4)ccc1c23	/	0.55
O=S(=O)(NC1=NCCCCC1)c1ccc(Cl)cc1	0.28	-0.25
O=C(Nc1ccccc1C(=O)Nc1ccccc1C(=O)O)c1ccccc1	0.68	-0.5
Cc1cc(C)nc(OC(Cc2ccncc2)c2cccc(C(F)(F)F)c2)n1 (stereo not given)	-0.24	/
O=C(CN1C(=O)S/C(=C\c2ccc(O)cc2)C1=O)N1CCOCC1	-0.48	-0.85
Cc1ccc2nc(C(F)(F)F)cc(N3CCN(CCS(=O)(=O)c4ccc(Cl)cc4)CC3)c2c1	-0.035	0.1
Cc1cccc(N2CCN(S(=O)(=O)c3cccc4nsnc34)CC2C)c1 (stereo not given)	-1.1	/
Nc1nc(NC2CCCCNC2=O)n[nH]1 (stereo not given)	-0.005	1.4
CCCCCc1nnc(N)s1	0.02	-0.35
CC(C)CNC(=O)c1cc(-c2cccs2)on1	-0.15	1.4
OCc1nc2ccccc2n1CC(O)COc1ccccc1 (stereo not given)	-0.57	-0.55
Cc1nc(-c2c(C(=O)NN)noc2C)cs1	11	-0.55
Clc1ccc2oc(-c3ccccn3)nc2c1	-0.17	-0.25
CCC(N)C(O)c1ccc(O)c(O)c1 (stereo not given)	/	0
c1ccc(-c2noc(NCCN3CCCc4ccccc43)n2)cc1	0.05	0.2
CC1CCCN(S(=O)(=O)Cc2ccccc2)C1 (stereo not given)	/	-0.05
COc1ccc(C(=O)N2CCN(C(=O)C3CC=CCC3C(=O)O)CC2)cc1F (stereo not given)	-0.065	/
O=c1[nH]c(-c2ccc(F)cc2)nc2c1sc(=S)n2-c1ccccc1	-0.26	2.2
COc1ccc(NC(=O)C2=CSCCO2)cc1OC	-1.1	0.8
O=S(=O)(Cn1nc(Br)nc1Br)c1ccc(Cl)cc1	0.59	-0.3
O=S(=O)(c1ccccc1)N1CCN(c2ccnc3cc(Cl)ccc23)CC1	0.57	2.2
CN(C)c1ccc(/C=C(/C#N)c2ccc(F)cc2)cc1	-2.4	-0.75
CCc1ccccc1N1C(=NC(=O)C(C)C)SC2CS(=O)(=O)CC21 (stereo not given)	1.1	-0.35
CN(C)c1ccc(Cl)nn1	/	0.55
O=C(NCc1ccc(Cl)cc1)C1=CN2CCS(=O)(=O)N=C2C=C1	/	0.25
Cc1cc(C)cc(NC(=O)C(c2ccccc2)N2CCCC2)c1 (stereo not given)	/	-0.65
O=P(O)(/C=C/c1ccccc1)/C=C/c1ccccc1	-0.12	-0.35
COc1ccc(C)cc1S(=O)(=O)NC(C)C(=O)NCc1ccco1 (stereo not given)	/	0.35
O=C(Nc1ccc(Oc2ccc3ccccc3c2Cl)c(Cl)c1)c1cc(I)cc(I)c1O	0.14	/
COc1cc(C#N)ccc1OCC(=O)Nc1ccc(F)cc1	-0.21	2.5
S=c1[nH]nc(-c2ccc(Br)cc2)o1	8.8	-0.8
CC(=O)N(C)CP(=O)(O)CN1CCCC1=O	2.6	1
OC(CN1CCOCC1)(c1ccccc1)c1ccccc1	0.31	1.4
CNC(=O)c1ccccc1Sc1ccccc1C(=O)NC	0.54	-0.7
CNc1ccn(-c2nc(-c3ccccc3)oc2-c2ccccc2)c(=O)n1	25	/
O=C(CCN1CCN(c2ccccc2)CC1)c1ccc2ccccc2c1	0.32	-0.15
O=C(O)c1cc(Br)c(C(=O)O)cc1Br	-0.59	/
N#Cc1nc(-c2ccc(Cl)cc2)oc1NC1CC1	94	-0.95
C1=C(c2ccccn2)Oc2ccccc2O1	79	-1.1
O=C(O)CCc1n[nH]c(=O)[nH]c1=O	0.36	-0.55
COc1ccc2c(c1)C(=O)C(CC1(O)C(=O)N(C)c3ccccc31)CC2 (stereo not given)	1.3	1.1
C1CCC(NC2=NCCCS2)CC1	-0.085	-0.4
Cc1noc(C)c1S(=O)(=O)N(C)C1CCCCC1	0.52	1.4

Further results follow:
compound	CapD inh	AID504770
O=C(CSc1ccc(Br)cc1)N1CCCCC1	-0.085	0.05
Cc1cc(C)c(C(=O)O)[nH]1	/	-0.4
CSCc1nnc(NC(=O)c2ccc(S(=O)(=O)N(CC(C)C)CC(C)C)cc2)o1	/	-0.7
COc1ccc(CCNC2(Cc3ccccc3)CC(C)N(C)CC2C)cc1OC (stereo not given)	1.3	0.65
Cc1ccc(S(=O)(=O)NC(=O)N2CCN(C(=O)OC(C)(C)C)CC2)cc1	0.22	/
Cc1c(NC(=O)c2nn3c(c2Cl)NC(c2ccc(Cl)cc2)CC3C(F)(F)F)c(=O)n(-c2ccccc2)n1C (stereo not given)	0.22	/
CC(C)(C)c1ccc(C(=O)NC(=S)NCc2ccco2)cc1	-0.3	-0.1
O=C(COc1ccc(-c2nnco2)cc1)N(c1ccccc1)C1CCCCC1	/	-0.35
O=C(N/N=C/c1ccco1)C1CC1(c1ccccc1)c1ccccc1 (stereo not given)	-0.015	-0.75
CCOC(=O)n1c(=O)oc2cc(Cl)ccc21	-0.51	-1.1
CC1=C(C(=O)OC(C)(C)C)C2(C(=O)Nc3ccccc32)C(C#N)=C(N)O1 (stereo not given)	-0.16	-0.6
CN(C)/C=C/c1c(C#N)c(=O)ncn1Cc1ccccc1	-1.2	-0.7
CCCS(=O)(=O)c1c(S(=O)(=O)CCC)c2c(N)cccn2c1C(=O)c1ccccc1	-1.1	/
Clc1cncc(Oc2ccc(-n3cccc3)cn2)c1	0.36	1
CC(=O)NC(C)C(=O)OCc1ccc(Cl)cc1Cl (stereo not given)	0.21	-0.1
CCOc1cccc(NC(=O)c2ccc(S(=O)(=O)N3CCCC3)cc2)c1	-0.58	-0.75
O=C(NC1CCN(S(=O)(=O)c2ccc(Cl)cc2)CC1)N1CCOCC1	-1.1	/
CN1CCC(c2ccc(Cl)s2)=N1	2.1	-0.55

Whole records, quoted from the list.
CCOc1cccc(NC(=O)c2ccc(S(=O)(=O)N3CCCC3)cc2)c1 is entered as CapD inh = -0.58; AID504770 = -0.75
CCCS(=O)(=O)c1c(S(=O)(=O)CCC)c2c(N)cccn2c1C(=O)c1ccccc1 is entered as CapD inh = -1.1; AID504770 = /

Source: PubChem (ICCB-Longwood Screening Facility, Harvard Medical School)
